Source: PubChem BioAssay (several laboratories)
BJeLR viability: BJeLR cell viability loss; inhibition, % (test concentration not listed); BJeLR (HRASV12) viability, CellTiter-Glo ATP luminescence, 48 h; reference of the scale not given here; hit rate 0.17% among 300,000;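 active = replicate mean above 50%; inconclusive = above 50% but judged a plate artefact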;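 also: 50 nL library stock added to about 25 µL; numbers are from one replicate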
ugtP null kill: growth inhibition of S. aureus ugtP deletion strain; S. aureus RN4220 ugtP deletion, OD600 growth, 16 h; some inactives read as strong as hits; growth inhibition, % (no concentration beside the values); hit rate 0.54% among 330,000; AID 1259309;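 active = z-score under -3 and OD600 up to 0.15 on both plates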;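 also: plate controls were untreated wells for no effect and antibiotic for full effect; wells of about 80 µL received 100 nL stock; the first replicate is given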
Mtb hypoxia inh: Mtb hypoxia fluorescent reporter inhibition; hit rate 0.1% among 300,000; fluorescence inhibition, % (no concentration beside the values); AID 1159583; M. tuberculosis hypoxia-regulated fluorescent reporter, fluorescence;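 active = 35 to 45% if threefold the growth effect, above 45% if 1.5-fold the growth effect; inactive = the rest, general growth blockers included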;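 also: wells of about 50 µL received 100 nL stock; 0% = vehicle wells and 100% = reference inhibitor wells; whole bacteria with a GFP reporter of the hypoxia response; strong numbers were not always called active; many hits fall short of the cut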
Bead autofluor: compound fluorescence in toxin protease inhibitor counterscreen | fluorescence intensity (no concentration beside the values) | hit rate 3.1% among 360,000 | AID 624483 | compound autofluorescence counterscreen, microsphere flow cytometry; stronger effect = higher value;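 active = at least 3 SD above the mean of all compounds, about 16000 in these data; inconclusive = too few beads counted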;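 also: 100 nL of 1 mM stock went into each well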
PrP UTR inh: inhibition of PrP 5' UTR reporter expression; cell-based PrP 5' UTR mRNA reporter, plate reader; inhibition, % (concentration not given with the values); hit rate 0.35% among 340,000; AID 488862;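 active = every replicate at 50% or more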;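 also: 0 = median of the neutral control wells; tested in H4 reporter cells; numbers are from one replicate; inactives centre near -14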
RN4220 kill: kills Staphylococcus aureus RN4220 | AID 1259311 | inhibition, % (test concentration not listed) | hit rate 0.33% among 330,000 | S. aureus RN4220 growth, OD600, 16 h;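 active = z-score of -3 or lower and OD600 up to 0.18 on both plates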;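 also: plate controls were untreated cells for no effect and reference antibiotic for full effect; stock transfer was 100 nL into about 80 µL; one replicate is shown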
Mtb hypoxia inh growth: second read-out of Mtb hypoxia inh, no call of its own (marks repeat the call); growth inhibition, %; measured here: M. tuberculosis growth (absorbance);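 0% = vehicle and 100% = reference antibiotic; read after six days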
Starred values were filed as active, the others as inactive; u = inconclusive; x = not tested or not shown.

SMILES	BJeLR viability	ugtP null kill	Mtb hypoxia inh	Mtb hypoxia inh growth	Bead autofluor	PrP UTR inh	RN4220 kill
Cc1cc(-c2csc(NC(=O)c3ccc(=O)[nH]c3)n2)c(C)n1Cc1ccco1	-6	4	-7	-9	3910	-2	4.6
Nc1nonc1-n1nnc(C(=O)N/N=C/c2ccccc2Cl)c1CN1CCOCC1	0	x	x	x	4302	-11	x
COc1cccc(C2C(C(=O)c3cc4ccccc4o3)=C(O)C(=O)N2c2cc(C)on2)c1OC (configuration not stated)	-2	13	1	0	2497	-12	-12
OCC1(Cc2ccccc2C(F)(F)F)CCN(Cc2ccccc2)CC1	-2	2	20	12	4071	-29	0.6
Cc1cc(-c2ccc(/C=N/n3cnnc3)o2)c(C)c([N+](=O)[O-])c1	2	x	x	x	3988	0	x
Cc1cccc(N2CCN(C(=O)c3ccc4nc(N5CCCCC5)sc4c3)CC2)c1C	-2	2	-1	-3	4631	-6	2.1
S=c1[nH]nc(-c2cccc(Cl)c2)n1Cc1ccccc1	4	0	6	8	2491	-8	8.6
CCOc1cc(N2CCOCC2)c(OCC)cc1NC(=O)c1c(C)noc1C	x	-1	-4	12	5963	-1	0.1
O=C(O)c1ccc(N=NN2CCCCC2)cc1	6	0	6	3	3345	-63	4.8
Cc1ccc(-c2cc(-c3ccccc3)[nH]c(=S)c2C#N)cc1	3	-14	2	3	3663	-36	5.2
COc1ccc(CC(=O)OCC(=O)NCc2ccccc2Cl)cc1	-2	3	12	5	3600	-8	2.0
Cc1ccsc1C(=O)C1CCCN(Cc2cc3ccccc3o2)C1 (configuration not stated)	7	2	10	8	4150	-23	1.8
COc1cc(C=O)cc(OC)c1OS(=O)(=O)c1ccc(NC(C)=O)cc1	0	-20	5	9	5914	-23	6.5
CCOC(=O)CSc1nnc(-c2cccnc2)n1C	1	5	8	1	4423	21	6.2
CC(C)CC(NS(=O)(=O)c1ccc2c(c1)oc(=O)n2C)C(=O)NCc1cccnc1 (configuration not stated)	3	8	8	8	5974	-12	2.3
COc1ccc(NS(=O)(=O)c2cccc(C(=O)NN=Cc3ccccc3OC)c2)cc1	x	6	-6	11	x	x	2.7
Cc1ccc(/C=N/n2c(COc3ccccc3)n[nH]c2=S)o1	-8	x	x	x	2027	-14	x
Cc1ccc(S(=O)(=O)N(C)N=C2C(=O)N(CC(=O)O)c3ccccc32)cc1	x	6	-3	-11	x	x	2.2
Nc1ccc(C(=O)OCC(=O)c2cccc([N+](=O)[O-])c2)cc1	0	5	0	-5	2166	-31	5.8
COc1ccc(-n2c(-c3ccco3)nc3c(cnn3-c3ccccc3C)c2=O)cc1	-2	3	-2	1	5331	-13	10
CSc1nnc(-c2cc3c(-c4ccccc4)nn(C)c3s2)n1C	1	-16	x	x	2099	-3	7.3
Clc1cccc(OCc2nc(-c3ccncc3)n[nH]2)c1	1	-3	1	10	u	-22	1.7
CCCOc1ccc(S(=O)(=O)N2CCOCC2)cc1[N+](=O)[O-]	-5	5	-8	-9	4308	-35	6.5
CCOc1ccc(NC(=O)C2C3c4ccccc4C(c4ccccc43)C2C(=O)O)cc1 (configuration not stated)	11	3	0	-2	4151	10	4.2
O=C(NCC(O)c1ccccc1)c1ccc(Cl)c(S(=O)(=O)N2CCCCC2)c1 (configuration not stated)	8	-1	13	2	5730	-14	7.5

(further entries)
SMILES	BJeLR viability	ugtP null kill	Mtb hypoxia inh	Mtb hypoxia inh growth	Bead autofluor	PrP UTR inh	RN4220 kill
CCN(C1=NS(=O)(=O)c2ccccc21)N(CC)S(=O)(=O)c1ccc(C)cc1	0	-2	14	5	2149	-24	8.5
COc1ccc(C(=O)NCCN2CCOCC2)cc1[N+](=O)[O-]	0	4	-17	-1	3553	-13	0.6
CCOC(=O)C[n+]1c(C)ccc2c1CCC2	2	-5	1	9	8952	-9	-1.4
O=C(CCS(=O)(=O)Cc1cccc(Cl)c1)NCCc1ccccc1	-2	0	5	-6	3939	-23	2.9
Cc1ccc(NC(=S)NN=C2CC3CC=CC23)c(C)c1 (configuration not stated)	x	-2	-6	5	x	x	1.3
Brc1ccc(-n2cnc(-c3ccccc3)c2)cc1	7	-5	9	0	4048	-67	10.0
CCOC(=O)c1c(NS(C)(=O)=O)sc2c1CCC(C)C2 (configuration not stated)	2	6	x	x	2061	-33	-0.9
Cc1ccc(Cl)cc1NC(=O)C(=O)N1CCCCC1	-5	-2	-2	5	2639	-14	-1.0
Cc1ccccc1-n1nc2c(c1NC(=O)c1cccs1)CS(=O)(=O)C2	10	2	-4	0	5254	-2	-1.0
OC1(c2cccnc2)CC2CCC(C1)N2Cc1nnnn1Cc1ccccc1 (configuration not stated)	-5	0	-1	7	4902	-7	2.5
CC(=O)n1cc(C2C=C(C(=O)Nc3ccccc3)OC(OCc3ccc(CO)cc3)C2)c2ccccc21 (configuration not stated)	x	-5	1	11	x	x	-2.0
CN(CC(=O)Nc1cccc(F)c1)C(=O)CSc1ccccc1F	-14	6	-8	-2	5659	-8	1.1
COc1cccc(NC(=O)C(Sc2nnc(Nc3ccccc3C)s2)c2ccccc2)c1 (configuration not stated)	-5	-13	8	4	2315	-12	-16
O=C(Nc1cccc2ncccc12)c1ccc(Cl)cc1	2	-5	15	7	4059	-21	4.6
CC1=Nc2ccccc2N=C(N)C1c1ccccc1 (configuration not stated)	-2	5	16	3	2159	-14	5.5
O=C1CCCN1CCCNS(=O)(=O)c1ccc(Br)cc1	5	-2	8	5	u	-8	5.3
Cn1c(=O)cc(OCC(=O)NCCCN2CCN(c3cccc(Cl)c3)CC2)c2ccccc21	3	18	x	x	4643	8	6.4
COc1ccc(-c2csc(NC(=S)NC(=O)c3cccs3)n2)cc1OC	-4	19	9	-2	4560	-14	15
O=C(O)C1CCC(Cn2c(SCc3cc(=O)n4ccccc4n3)nc3ccsc3c2=O)CC1 (configuration not stated)	3	19	12	5	4301	-13	10
CCc1ccc(NC(=O)C2C3/C=C\CCCCC32)cc1 (configuration not stated)	-1	-5	6	9	7002	-109	4.9
COc1ccc(CCNS(=O)(=O)c2cc3c4c(c2)C(C)C(=O)N4CCC3)cc1OC (configuration not stated)	-3	3	9	2	6528	-20	2.9
Cc1ccc(/C=C/C(=O)OC(C)C(=O)Nc2ncc(Cl)cc2Cl)o1 (configuration not stated)	-1	0	6	1	2560	-16	2.9
CC(=O)c1ccc(N2CCN(C(=O)CCC(=O)c3cccs3)CC2)cc1	10	8	6	3	4593	-7	1.4
CCOc1cc(OCC)cc(C(=O)NCc2ccco2)c1	-5	0	0	-3	3461	-10	-2.1
O=C(CNC(=O)c1ccccc1F)NCCN1C(=O)S/C(=C\c2ccccc2Cl)C1=O	9	0	4	6	5550	-9	1.7

(listing goes on)
SMILES	BJeLR viability	ugtP null kill	Mtb hypoxia inh	Mtb hypoxia inh growth	Bead autofluor	PrP UTR inh	RN4220 kill
COc1ccc(Sc2nc(-c3ccccc3)ncc2OC)cc1	9	5	3	5	3945	-10	0.8
Cc1ccc(CNC(=O)C2CC3Cn4c(nc5ccccc54)C3N2C)o1 (configuration not stated)	7	-6	4	9	3580	-27	1.6
O=c1cc(-c2ccncc2)oc2ccccc12	x	4	x	x	3499	-25	1.3
CN(Cc1cccc(F)c1)C(=O)c1ccc2c(=O)n3c(nc2c1)CCC3	0	1	2	0	5184	-42	1.6
CC12CCC(=O)N1C(C(=O)Nc1cc(C(F)(F)F)ccc1N1CCCCC1)CS2 (configuration not stated)	6	-9	2	5	6217	-14	0.0
COc1ccc(NC2CCCN(C(=O)c3cc4ncccn4n3)C2)cc1 (configuration not stated)	3	-1	2	0	6276	-18	2.6
CCn1nc(CC(=O)Nc2nnc(CC(=O)N3CCCC3)s2)c2ccccc2c1=O	4	-1	x	x	3217	-3	0.6
O=C(NN=Cc1ccco1)C12CC3CC(CC(C3)C1)C2	x	0	9	5	x	x	6.9
CC1CCCC(C)N1C(=O)CSc1ncccn1 (configuration not stated)	-1	-1	17	1	3957	-23	3.1
CC1CCCCC1NC(=O)CSc1nc2ccccc2c(=O)n1Cc1ccco1 (configuration not stated)	7	2	3	-1	9064	-15	4.3
COc1ccc(-n2c(SCC(=O)NCc3cccs3)nnc2-c2ccoc2C)cc1	-1	7	6	6	3113	-21	2.4
CC(C)(C)CC(C)(C)N1CNC(=S)NC1	0	2	20	13	3823	-29	4.2
O=C(O)CN1CCc2ccccc2C1	-3	10	4	0	4075	-65	5.8
COCc1nnc(NC(=O)CSCc2ccccc2)s1	7	9	3	13	3155	-51	0.3
Clc1ccccc1N1CCN(Cc2ccc(Br)o2)CC1	1	12	-1	6	3430	-15	9.1
COc1cccc(NC(=O)Cc2nnc(SCC(=O)NC3CCCC3)n2C)c1	-2	6	-14	-6	3613	-28	-1.4
CC(C)c1ccc(NC(=O)C(=O)c2cn(CC(=O)N3CCCCC3)c3ccccc23)cc1	0	0	10	3	10849	-21	-0.7
COc1ccc(CCC(C)NCc2ccc(Cl)c(Cl)c2)cc1 (configuration not stated)	0	-13	12	12	3599	-23	-2.8
Cc1cccc(NC(=O)Nc2ccc(Cl)cc2)n1	-10	-2	12	6	3426	-62	4.7
Cc1ccc(C(=O)OCC(=O)N2CCCC2)cc1	4	-1	2	-4	3870	-16	2.5
Cc1ccc(NC(=O)COC(=O)CCC2CCCC2)c(Br)c1	x	10	1	0	6431	-11	5.1
O=C(/C=C/c1c(F)cccc1Cl)Nc1ccc(S(=O)(=O)Nc2ncccn2)cc1	3	8	8	3	4783	-12	4.4
O=C(NCC(c1ccco1)N1CCN(c2ccccc2)CC1)C(=O)NC1CC1 (configuration not stated)	0	7	3	-4	4534	-22	4.7
O=C(N/N=C/C(Cl)=C/c1ccccc1)c1ccco1	6	x	x	x	4219	-60	x
CCC(=O)N1CC(C)C(=O)Nc2ccccc21 (configuration not stated)	3	8	x	x	5954	-17	-0.4

Part of the list above in order of molar mass, ascending.
SMILES	BJeLR viability	ugtP null kill	Mtb hypoxia inh	Mtb hypoxia inh growth	Bead autofluor	PrP UTR inh	RN4220 kill
CCOC(=O)C[n+]1c(C)ccc2c1CCC2	2	-5	1	9	8952	-9	-1.4
O=C(O)c1ccc(N=NN2CCCCC2)cc1	6	0	6	3	3345	-63	4.8
CCOC(=O)CSc1nnc(-c2cccnc2)n1C	1	5	8	1	4423	21	6.2
Cc1ccc(Cl)cc1NC(=O)C(=O)N1CCCCC1	-5	-2	-2	5	2639	-14	-1.0
Cc1ccc(NC(=S)NN=C2CC3CC=CC23)c(C)c1 (configuration not stated)	x	-2	-6	5	x	x	1.3
Cc1ccc(-c2cc(-c3ccccc3)[nH]c(=S)c2C#N)cc1	3	-14	2	3	3663	-36	5.2
CSc1nnc(-c2cc3c(-c4ccccc4)nn(C)c3s2)n1C	1	-16	x	x	2099	-3	7.3
COc1ccc(CC(=O)OCC(=O)NCc2ccccc2Cl)cc1	-2	3	12	5	3600	-8	2.0
Clc1ccccc1N1CCN(Cc2ccc(Br)o2)CC1	1	12	-1	6	3430	-15	9.1
Cc1ccc(NC(=O)COC(=O)CCC2CCCC2)c(Br)c1	x	10	1	0	6431	-11	5.1
CC(=O)c1ccc(N2CCN(C(=O)CCC(=O)c3cccs3)CC2)cc1	10	8	6	3	4593	-7	1.4
OC1(c2cccnc2)CC2CCC(C1)N2Cc1nnnn1Cc1ccccc1 (configuration not stated)	-5	0	-1	7	4902	-7	2.5
O=C(NCC(c1ccco1)N1CCN(c2ccccc2)CC1)C(=O)NC1CC1 (configuration not stated)	0	7	3	-4	4534	-22	4.7
Cc1ccc(S(=O)(=O)N(C)N=C2C(=O)N(CC(=O)O)c3ccccc32)cc1	x	6	-3	-11	x	x	2.2
CCN(C1=NS(=O)(=O)c2ccccc21)N(CC)S(=O)(=O)c1ccc(C)cc1	0	-2	14	5	2149	-24	8.5
O=C(NCC(O)c1ccccc1)c1ccc(Cl)c(S(=O)(=O)N2CCCCC2)c1 (configuration not stated)	8	-1	13	2	5730	-14	7.5
COc1ccc(CCNS(=O)(=O)c2cc3c4c(c2)C(C)C(=O)N4CCC3)cc1OC (configuration not stated)	-3	3	9	2	6528	-20	2.9
CC(C)CC(NS(=O)(=O)c1ccc2c(c1)oc(=O)n2C)C(=O)NCc1cccnc1 (configuration not stated)	3	8	8	8	5974	-12	2.3
COc1cccc(NC(=O)C(Sc2nnc(Nc3ccccc3C)s2)c2ccccc2)c1 (configuration not stated)	-5	-13	8	4	2315	-12	-16
